# Methyltransferases = Primary Screen for Target Class Profiling of Small Molecule Inhibitors of Methyltransferases | purified enzyme, MTase-Glo SAH luminescence; hits give low values | calls only at 40 µM | 25,000 tested, 3.9% active; active = -50% or lower on at least one of six enzymes; inconclusive = the cases between; inactive = as a rule above -30% on all six;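 note: enzymes were COMT GAMT GNMT HNMT NNMT and PNMT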
#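 Each enzyme was assayed with SAM and its substrate. SAH formation detected by MTase-Glo luminescence; single-point 40 uM screen[…].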
# Calls only; i = inactive; ? = inconclusive; + = active, no number; ! = a repeat was not active. % is set by controls: 0 for no effect and ±100 for the full control effect.
molecule | Methyltransferases
CC1CC(C)CN(C(=O)Cn2c(=O)oc3cc(S(=O)(=O)N4CC(C)CC(C)C4)ccc32)C1 (configuration not stated) | i
O=c1[nH]c2ccc(S(=O)(=O)N3CCN(c4ccc(F)cc4)CC3)cc2[nH]1 | i
COc1ccccc1CNC(=O)C1(C)Cn2cnc(C(=O)NCc3ccc(C)cc3)c2C(=O)N1C1CC1 (configuration not stated) | i
O=C(O)CO[C@@H]1COCC[C@H]1NC(=O)c1cc2c(s1)CCCCC2 | i
CCC(C)NC(=O)c1ccc2c(=O)n(CCC(C)C)c3nn(CC(=O)Nc4ccc(C)cc4)c(=O)n3c2c1 (configuration not stated) | i
COc1ccc(C(=O)N[C@@H]2c3ccccc3C3(CCNCC3)[C@H]2OC)c(C)c1 | i
COC(=O)CC(O)CC(O)/C=C/c1c(C)ccc2c1C(O)CC(C)C2 (configuration not stated) | i
OC[C@H]1O[C@@H](n2cnc3c(NC4CCCCC4)ncnc32)[C@H](O)[C@@H]1O | i
CN1c2cccnc2CN(C2CCC(CO)CC2)CC[C@H]1CO (some centres not stated) | i
COC(=O)c1ncn2c1C(=O)N(Cc1ccc(C)o1)C(C)(C(=O)NC1CCCCC1)C2 (configuration not stated) | i
CN(CC1CCN(CCc2ccc(Cl)cc2)CC1)C(=O)c1ccccc1C#N | i
O=C(NCc1ccc(F)cc1)c1ccc2c(=O)nc3c(-c4ccccc4)n[nH]n3c2c1 | i
C[C@H]1CC[C@H]2[C@@H](C=C[C@@](C)(O)[C@]2(C)C(=O)CCO)C1 | i
Cn1c(=O)c2ccc(C(=O)NC3CCCCC3)cc2n2c(SCc3cccc(F)c3)nnc12 | i
COc1ccc(S(=O)(=O)Nc2ccc3n(c2=O)C[C@H]2C[C@@H]3CN(C(=O)Nc3cc(OC)cc(OC)c3)C2)cc1 | i
CC(C)CCn1c(=O)c2ccccc2n2c(CCC(=O)NCCCOC(C)C)nnc12 | i
COc1ccc2cc3n(c2c1)CC(C)(C(=O)NC1CCCC1)N(Cc1ccccc1Cl)C3=O (configuration not stated) | i
COc1cc(=O)n2c(c1C(=O)NC1CCCCCC1)CCCC2 | i
COc1ccc(OC)c(S(=O)(=O)N2CCCN(C)c3ccccc32)c1 | i
Cc1cccc(NC(=O)Cn2nc3n(C(C)C)c(=O)c4ccc(C(=O)NC5CCCC5)cc4n3c2=O)c1 | i
CC1CCN(S(=O)(=O)c2ccc3c(ccn3CC(=O)NCc3ccc(OC(C)C)cc3)c2)CC1 | i
CC(C(=O)NCc1cccc(Br)c1)n1ccc2cc(S(=O)(=O)N3CCCC3)ccc21 (configuration not stated) | i
CN1C[C@H](O)C[C@H]1c1nnc2n1CCN(C(=O)Cc1cccc(F)c1)CC2 | i
CC1(C(=O)NC2CCCCCCC2)Cn2c(ccc2-c2ccco2)C(=O)N1Cc1cccc(F)c1 (configuration not stated) | i
COC(=O)c1ncn2c1C(=O)N(c1ccc(C(C)C)cc1)C(C)(C(=O)NCc1ccccc1)C2 (configuration not stated) | i
CC(CCC1(O)OC2CC3C4CCC5CC(O[C@@H]6O[C@H](CO)[C@@H](O)[C@H](O)[C@H]6O[C@@H]6O[C@@H](C)[C@H](O)[C@@H](O)[C@H]6O)C(O)CC5(C)C4CCC3(C)C2C1C)CO[C@@H]1O[C@H](CO)[C@@H](O)[C@H](O)[C@H]1O (some centres not stated) | i
COc1cccc(Cn2nc3n(CC(C)C)c(=O)c4ccc(C(=O)NC5CCCC5)cc4n3c2=O)c1 | i
O=C(NCCCc1ccccc1)c1ccc2c(=O)nc3c(-c4cccc(F)c4)n[nH]n3c2c1 | i
CN(Cc1ccc(F)cc1)C(=O)c1cn(Cc2ccccc2C(F)(F)F)nn1 | i
COCCn1cnnc1CNc1cc(-c2ccncc2)nc2ccnn12 | i

# Part of the list above in order of molar mass, lowest first:
molecule | Methyltransferases
COC(=O)CC(O)CC(O)/C=C/c1c(C)ccc2c1C(O)CC(C)C2 (configuration not stated) | i
COc1ccc(OC)c(S(=O)(=O)N2CCCN(C)c3ccccc32)c1 | i
COc1ccccc1CNC(=O)C1(C)Cn2cnc(C(=O)NCc3ccc(C)cc3)c2C(=O)N1C1CC1 (configuration not stated) | i

# Structures shown so far containing a furan ring, fused or not:
molecule | Methyltransferases
COC(=O)c1ncn2c1C(=O)N(Cc1ccc(C)o1)C(C)(C(=O)NC1CCCCC1)C2 (configuration not stated) | i
CC1(C(=O)NC2CCCCCCC2)Cn2c(ccc2-c2ccco2)C(=O)N1Cc1cccc(F)c1 (configuration not stated) | i

# Returning to the listing, starting 2 compounds before the break.
molecule | Methyltransferases
CN(Cc1ccc(F)cc1)C(=O)c1cn(Cc2ccccc2C(F)(F)F)nn1 | i
COCCn1cnnc1CNc1cc(-c2ccncc2)nc2ccnn12 | i
Nc1nc(NCc2ccc(N3CCCC3=O)cc2)cc(C2CC(O)C2)n1 (configuration not stated) | i
CC(=O)N1c2ccc(-c3ccc(C(=O)O)cc3)cc2C(Nc2ccc(Cl)cc2)CC1C (configuration not stated) | ?
COc1ccc(Cn2c(=O)c3ccccc3n3c(-c4cccc(OC)c4)nnc23)cc1 | i
O=[S+]([O-])(c1cccc(C(F)(F)F)c1)N1CC(CNc2cccnc2)C2(CN(c3ccccc3)C2)C1 (configuration not stated) | i
O=C(Nc1ccc(F)cc1)c1cc(-c2ccc[nH]2)n[nH]1 | i
C=C1CC2OC(=O)C(=C)C2C(OC(=O)/C(C)=C\C)CC2(C)OC1=CC2=O (configuration not stated) | i
O=C1CC(c2ccccc2)NCCCCCCN1 (configuration not stated) | i
CCOC(=O)c1cc2n(n1)CC(C)(C(=O)NCCOC)N(c1ccc(C)c(C)c1)C2=O (configuration not stated) | i
Cc1ccc(C)c(OCc2cc(C(=O)N3CCC(N4CCSCC4)CC3)no2)c1 | i
COc1ccc(NC(=O)N2CCn3cccc3C2C(C)C)cc1 (configuration not stated) | i
O=C(CC1CCCC1)N1CCC(Nc2cccnc2)C1 (configuration not stated) | +
O=c1cc(-c2cnccn2)oc2c(Nc3cccc(OC(F)(F)F)c3)nccc12 | i
CN1C(=O)c2cc(C(=O)N3CCN(c4ccccc4F)CC3)nn2CC1(C)C(=O)NC1CCCC1 (configuration not stated) | i
COc1ccc2cc(C(=O)N3CC4CC(C3)[C@H]3CCCC(=O)N3C4)[nH]c2c1 (some centres not stated) | i
CCCC1c2cccn2CCN1C(=O)Nc1ccc(C)cc1Cl (configuration not stated) | ?
O=C(Cn1c2c(c(=O)n1Cc1ccccc1)CCN(Cc1ccccc1)C2)NCc1cccc(Cl)c1 | i
CCOc1ccc(N2C(=O)c3cc(-c4ccccc4)nn3CC2(C)C(=O)NCCCOC)cc1 (configuration not stated) | i
C[C@H](O)[C@@H]1C(=O)N2C(C(=O)O)=C(S[C@@H]3CN[C@H](CNS(N)(=O)=O)C3)[C@@H](C)[C@@H]12 | ?
c1ccc2cc(-c3noc([C@@H]4Cc5nc[nH]c5CN4CC4CCCCC4)n3)ccc2c1 | i
COc1ccc(-c2cc3n(n2)CC(C)(C(=O)NCc2ccccc2OC)N(c2cccc(SC)c2)C3=O)cc1 (configuration not stated) | i
CO[C@@H](C)Cn1c(=O)n(C)c2cnc3ccc(-c4cncc(C(C)(C)O)c4)cc3c21 | i
Cn1c(=O)n(C)c2cc(S(=O)(=O)Nc3ccccc3)c(Cl)cc21 | i
O=C(Cc1cccs1)N1CCCn2cc(-c3ccccc3F)nc21 | ?
C[S+](=O)([O-])N1CC2(Cc3ccccc31)CN(C(=O)c1ccc(F)cc1)C2 | i
O=C(c1ccccn1)N1CCCC2(CNc3ccccc3[S+](=O)([O-])N2)C1 (configuration not stated) | i
CN1C(=O)c2cc3ccccc3n2CC1(C)C(=O)NCC(=O)N1CCCCC1 (configuration not stated) | i
O=c1c2ccccc2n2c(-c3ccccc3)nnc2n1Cc1ccc(F)cc1 | i
CCOc1ccc(CN2C(=O)c3cc4ccccc4n3CC2(C)C(=O)NCc2ccccc2OC)cc1OC (configuration not stated) | i
Nc1cc(C(F)(F)F)c(-c2cc(N3CCOCC3)nc(N3CCOCC3)n2)cn1 | i
CC1(C(=O)NC2CCCCCCC2)Cn2c(cc3sccc32)C(=O)N1C1CCCCC1 (configuration not stated) | i

# No new results follow: entries from further up.
molecule | Methyltransferases
Nc1nc(NCc2ccc(N3CCCC3=O)cc2)cc(C2CC(O)C2)n1 (configuration not stated) | i
CC(=O)N1c2ccc(-c3ccc(C(=O)O)cc3)cc2C(Nc2ccc(Cl)cc2)CC1C (configuration not stated) | ?

# Carrying on.
molecule,Methyltransferases
Cc1c(C(=O)N2CC[C@@](O)(C3CCOCC3)[C@H](C)C2)n(C)c2c(C)cccc12,i
CC1CCCC(NC(=O)Cn2c(=O)oc3cc(S(=O)(=O)NCc4ccccc4)ccc32)C1C (configuration not stated),i
CNC(=O)Oc1ccc2c(c1)[C@]1(C)CCN(C)[C@@H]1N2C,i
CCn1cc(-c2ccc(C)cc2)cc1C(=O)O,i
O=C(Nc1ccc(Cl)cc1)C1CCCN(C(=O)c2cccc(-c3ccco3)c2)C1 (configuration not stated),?
Fc1ccc(CN2CCC(Nc3ccc(C(F)(F)F)nn3)CC2)cc1F,i
Cc1cc(OC2CN([S+](=O)([O-])c3cccs3)C2)ccc1F,?
O=C(N[C@@H]1CCOC[C@H]1Oc1cccc(F)c1)c1cnc2ccccn2c1=O,i
COc1cc([C@@H](O[C@@H]2O[C@H](CO)[C@@H](O)[C@H](O)[C@H]2O)[C@@H]2CO[C@H](c3ccc(O)c(OC)c3)[C@H]2CO)ccc1O,i
O=C(Cn1ccc2cc(S(=O)(=O)N3CCCCC3)ccc21)N1CCN(c2ccccn2)CC1,i
COCCNC(=O)C[C@@H]1C[C@@H](C(C)C)[C@H](CNC(=O)C2CC2)C=C1C,i
COc1ccccc1CCNC(=O)CCn1ccc2cc(S(=O)(=O)N3CCCCC3)ccc21,i
CCc1noc(CN(C(=O)c2oc3ccc(C)cc3c2C)C(C)C)n1,i
O=C(Cn1ccc2cc(S(=O)(=O)N3CCCC3)ccc21)NCc1ccc2c(c1)OCO2,i
CCN1C(=O)c2c(C(=O)NCc3ccc(OC(C)C)cc3)ncn2CC1(C)C(=O)NC1CCCC1 (configuration not stated),i
O=C(NCc1ccc(Cl)nc1)c1cn2c(n1)CN(C(=O)c1cccnc1)CC2,i
Nc1nc2c(ncn2CCC(CO)CO)c(=O)[nH]1,?
O=C(Nc1ccccc1)N1Cc2c(sc3c2CCCC3)-n2cccc2C1c1ccccc1 (configuration not stated),i
COCCCN1C(=O)c2cc(-c3ccc(OC)cc3)nn2CC1(C)C(=O)NCc1ccccc1 (configuration not stated),i
COC(=O)c1ncn2c1C(=O)N(Cc1ccc(OC)cc1OC)C(C)(C(=O)NC1CCCCCC1)C2 (configuration not stated),i
CCCN(CCC)CCCN1C(=O)c2cc3sccc3n2CC1(C)C(=O)NC1CCCCCC1 (configuration not stated),i
COc1cccc(S(=O)(=O)N2C[C@@H](F)C[C@H]2C(=O)N2CCc3ccccc3C2)c1,i
O=C1CN(Cc2ccccc2F)S(=O)(=O)c2ccccc2N1Cc1cccc(F)c1,i
CN1CCN([C@H]2CCN(Cc3cccs3)C[C@H]2CCC(=O)O)CC1,i
COc1cccc(CNC(=O)c2cc3n(n2)CC(C)(C(=O)NCc2ccc(C)cc2)N(C)C3=O)c1OC (configuration not stated),i
COc1cccc(-c2nc3ccc(-c4ccc5c(c4)OCO5)cc3o2)c1OC,i
CC(C)CNC(=O)c1ccc2c(=O)n(CC(C)C)c3nn(CC(=O)Nc4ccccc4F)c(=O)n3c2c1,i
CC1OC(OCC2OC(OC3CCC4(C)C(CCC5(C)C4CC=C4C6CC(C)(C)CCC6(C(=O)OC6OC(CO)C(O)C(O)C6O)CCC45C)C3(C)CO)C(O)C(O)C2O)C(O)C(O)C1O (configuration not stated),i
COc1ccccc1CN1C(=O)c2cc(-c3cccs3)nn2CC1(C)C(=O)NC1CCCCCC1 (configuration not stated),i
CCCn1c(=O)c2ccc(C(=O)NC3CCCC3)cc2n2c(SCC(=O)Nc3ccccc3C)nnc12,i
Cc1ncsc1C(=O)N1CCCC(C)(Cc2ccc3c(c2)OCO3)C1 (configuration not stated),i
CCCn1nc(CNC(=O)Cc2ccc(F)cc2)c2ccccc21,i
CCCN1C(=O)c2cc(C(=O)NCCN3CCOCC3)nn2CC1(C)C(=O)NC1CCCC1 (configuration not stated),i
COc1ccccc1C(=O)N(Cc1ccccc1)S(=O)(=O)c1ccc2c(c1)n(C)c(=O)n2C,i
COC(=O)C1=CN(CC(=O)NC(C)c2ccccc2)S(=O)(=O)N=C1C (configuration not stated),i
CCC(C)NC(=O)c1ccc2c(=O)n(C)c3nnc(SCC(=O)Nc4ccccc4F)n3c2c1 (configuration not stated),i
CC1(C(=O)NCc2ccc(Cl)cc2)Cn2c(ccc2-c2ccco2)C(=O)N1CCc1ccco1 (configuration not stated),i
O=C(CC1CCOCC1)Nc1ccc(N2CCOCC2)cc1,i
CN(C)CC1CCn2c(c(C3=C(c4cn(C)c5ccccc45)C(=O)NC3=O)c3ccccc32)C1 (configuration not stated),+!
O=C(c1cc2cc(F)ccc2[nH]1)N1CCCC(CO)(Cc2cccc(Cl)c2)C1 (configuration not stated),i
O=C(NCC1CC1)c1cccc(OC2CN(Cc3cc4ccccc4nc3Cl)C2)c1,i
CCc1cc(C(=O)N2CCOCC2CC(=O)N2CCSCC2)cs1 (configuration not stated),i
CN(Cc1cccn1C)C(=O)c1ccc(Cl)nc1,i
COc1ccc(NC(=O)N2Cc3c(sc4c3CCCC4)-n3cccc3C2c2cccc(OC)c2)cc1 (configuration not stated),i
CN(Cc1ccccc1)C(=O)CCc1nc(C2CCCN2C(=O)C2CCC2)no1 (configuration not stated),i
COc1ccc(CCC(=O)O)c(O[C@@H]2O[C@H](CO)[C@@H](O)[C@H](O)[C@H]2O)c1,i
NC1CCCCN(Cc2ccc(Cl)c(F)c2)C1 (configuration not stated),i

# The list is partial. The share of hits here may be higher or lower than overall.
